Screens: PubChem BioAssay, National Center for Advancing Translational Sciences (NCATS)
TsaE inh: qHTS Assay for Inhibitors of YjeE | tRNA threonylcarbamoyladenosine biosynthesis protein TsaE (Escherichia coli (strain … | purified YjeE, fluorescence polarisation of a bound ADP probe | Potency, µM | 71,000 compounds, 0.05% hits; active = well fitted falling curve; inconclusive = weaker or top-dose-only fall, or a rising curve; inactive = flat or poorly fitted curve;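 note: top concentration of the series not given in the record; excess ADP was the control for the full effect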
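Fluorescence polarization of a BODIPY Texas Red–ADP probe (2 uM) bound to purified YjeE (10 uM) was read after 15 min room-temperature incubation with compounds. Loss of polarization marks inhibitors; ADP serves as titrated control.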
PK Bst: Pyruvate Kinase. partly purified Bacillus stearothermophilus pyruvate kinase, luminescence ATP production; ribose 5-phosphate activator present at AC10. Potency, µM. 51,000 compounds, 1.2% hits. AID 361, 2006; in the data active means potency below about 11 µM; inconclusive means mostly about 12 µM to 25 µM; inactive means weaker than that;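 the screen sought inhibitors and activators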;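 note: potency is the fitted concentration of half-maximal effect; scaled between full activation by ribose 5 phosphate and full inhibition by luteolin; about four in five hits inhibit and the cells do not say which; series up to 57 µM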
* hit, by the source's call; i = inactive; ? = inconclusive; nt = not tested or not shown.

SMILES | TsaE inh | PK Bst
CC(C)CCn1c(Br)nc2c1c(=O)n(CC(N)=O)c(=O)n2C | i | >57
O=S1(=O)C=C(Sc2nc3ccccc3s2)c2ccccc21 | i | >57
CC(=O)Oc1ccc(NC(=O)CSc2ccccc2)cc1 | i | >57
Cn1cnnc1SCNC(=O)C(F)(F)F | i | >57
COC(=O)C1(C)C=CC2(CCCCC2)N1C(C)=O (stereo not drawn) | i | nt
Cn1cc(S(=O)(=O)N2CCN(Cc3ccccc3)CC2)c(=O)n(C)c1=O | i | nt
O=C1NCCCC1C(=O)NCCN1C(=O)CCC1=O (stereo not drawn) | i | nt
c1nc(N2CCCC2)c2[nH]cnc2n1 | i | i
O=c1c(-c2ccc(Cl)cc2)coc2c(CN3CCOCC3)c(O)ccc12 | i | nt
CCNC(=O)C1(c2ccccc2)CCCC1 | i | nt
O=C(CSc1nnc(-c2ccccc2)o1)N1CCN(c2ccccc2)CC1 | i | >57
CCOC(=O)CN1C(=O)NC2NC(=O)NC21 (stereo not drawn) | i | >57
COc1ccccc1Oc1ccc(S(=O)(=O)N2CCOCC2)cc1S(=O)(=O)N1CCOCC1 | i | nt
C=CCN1C(=O)CSC1=Nc1cccc(O)c1 | i | >57
COc1ccc(NS(=O)(=O)c2ccc(NC(=O)C3CCCO3)cc2)cc1 (stereo not drawn) | i | >57
Cc1nc2sc(C(c3ccc(C(C)C)cc3)N3CCN(CCO)CC3)c(O)n2n1 (stereo not drawn) | i | nt
COc1cccc(C2=CC(c3cccc(OC)c3OC(F)F)n3nnnc3N2)c1 (stereo not drawn) | i | nt
Nn1c(SCC(=O)NC2CCCCC2)nnc1C1CC1 | i | >57
COc1ccc(OC)c(NC(=O)Cn2cnc3c(cnn3-c3ccccc3)c2=O)c1 | i | nt
COc1ccccc1C(O)P(=O)(OC(C)C)c1ccc(N(C)C)cc1 (stereo not drawn) | i | >57
N=P(N1CCOCC1)(N1CCOCC1)C12CC3CC(CC(C3)C1)C2 | i | >57
Nc1nc(SCCc2ccccc2)c2[nH]cnc2n1 | i | nt
Cc1ccc(S(=O)(=O)N2CC(O)CC2C(=O)Nc2ccc3c(c2)CCC3)cc1 (stereo not drawn) | i | i
CCOC(=O)C1=C(C)NC(=O)NC1c1ccc(C)o1 (stereo not drawn) | i | nt
Cc1ccc(S(=O)(=O)N2CC(=O)Nc3ccccc32)cc1C | i | nt

Next part
SMILES | TsaE inh | PK Bst
O=C(NCc1ccco1)C1CCN(c2nc3ccccc3n2Cc2ccc(F)cc2)CC1 | i | nt
CCc1ccccc1NC1c2ccccc2C(=O)N1Cc1ccco1 (stereo not drawn) | i | nt
CC(C)Oc1ccc(CNCC2(O)CCOC(C)(C)C2)cc1 (stereo not drawn) | i | >57
O=C(Cn1nnc(-c2ccccc2NC(=O)c2ccco2)n1)Nc1ccccc1 | i | >57
COc1ccc(C(=O)Nc2cc(=O)n(C)c(=O)n2C)cc1OC | i | nt
N#Cc1c(N)n(CCOC(=O)c2cccc(Br)c2)c2nc3ccccc3nc12 | nt | >26
O=C(Nc1ccccn1)NC(C(F)(F)F)C(F)(F)F | nt | >26
Cc1ccc(Cn2ccc(NC(=O)C3C4CCC(C4)C3C(=O)O)n2)cc1 (stereo not drawn) | i | >57
COc1ccc(CCNC(=O)C2CCN(S(=O)(=O)c3cccc4nonc34)CC2)cc1OC | i | >57
CCc1nc(Nc2ccc3nccnc3c2)c2oc3ccccc3c2n1 | i | >57
COCCn1c(=O)c(-c2ccc(OC)cc2)nc2cnc(N3CCN(C)CC3)nc21 | i | nt
O=C(NC1CCCCCC1)C1CCN(c2nc3ccccc3o2)CC1 | i | >57
COc1ccc2ncn(-c3ccccc3)c2c1 | i | >57
O=C1CSC(c2ccccc2F)N1CCN1CCCCC1 (stereo not drawn) | i | >57
COc1ncc2nc(-c3ccc(F)cc3)c(=O)n(C3CC3)c2n1 | i | nt
COc1cccc(C(C(=O)NCc2ccco2)N(C(=O)Cn2nnc3ccccc32)C2CC2)c1OC (stereo not drawn) | i | >57
Cc1nc(N)sc1-c1csc(Nc2ccc(Cl)cn2)n1 | i | i
Cc1cnc(CNc2ncncc2-c2ccccc2CN(C)C)cn1 | i | nt
Cc1ccc(-n2c(=O)c3sccc3n(CC(=O)N3CCCC3)c2=O)cc1 | i | >57
CCCCOc1ccc(C(=O)N2CCC(C)CC2)cc1 | i | >57
CCN1CCN(CC(O)COc2cccc(OC)c2)CC1 (stereo not drawn) | ? | >57
Cc1noc(C)c1-c1cc(N(C)Cc2ccco2)ncn1 | i | nt
O=C(NCc1cn2ccsc2n1)c1cccs1 | i | nt
COC(=O)c1[nH]c2cc(OC)ccc2c1NC(=O)CN1CCC(C(N)=O)(N2CCCCC2)CC1 | i | >57
O=C(C1CC(c2ccc(F)cc2)=NO1)N1CCN(Cc2ccccc2)CC1 (stereo not drawn) | i | nt

Quoted at random: seven records from the list
SMILES | TsaE inh | PK Bst
Cc1noc(C)c1-c1cc(N(C)Cc2ccco2)ncn1 | i | nt
O=C(Nc1ccccn1)NC(C(F)(F)F)C(F)(F)F | nt | >26
Cc1nc(N)sc1-c1csc(Nc2ccc(Cl)cn2)n1 | i | i
O=C(NC1CCCCCC1)C1CCN(c2nc3ccccc3o2)CC1 | i | >57
CCN1CCN(CC(O)COc2cccc(OC)c2)CC1 (stereo not drawn) | ? | >57
CC(C)Oc1ccc(CNCC2(O)CCOC(C)(C)C2)cc1 (stereo not drawn) | i | >57
COc1ccc2ncn(-c3ccccc3)c2c1 | i | >57

Arranged by length of the SMILES (low to high): part of the list above
SMILES | TsaE inh | PK Bst
COc1ccc2ncn(-c3ccccc3)c2c1 | i | >57
CCc1ccccc1NC1c2ccccc2C(=O)N1Cc1ccco1 (stereo not drawn) | i | nt
CCc1nc(Nc2ccc3nccnc3c2)c2oc3ccccc3c2n1 | i | >57
Cc1ccc(Cn2ccc(NC(=O)C3C4CCC(C4)C3C(=O)O)n2)cc1 (stereo not drawn) | i | >57
O=C(NCc1ccco1)C1CCN(c2nc3ccccc3n2Cc2ccc(F)cc2)CC1 | i | nt
COc1cccc(C(C(=O)NCc2ccco2)N(C(=O)Cn2nnc3ccccc32)C2CC2)c1OC (stereo not drawn) | i | >57

Continuation:
SMILES | TsaE inh | PK Bst
COC(=O)CSc1nnc(-c2sc3cc(OC)ccc3c2Cl)n1C | i | >57
NC(=O)CSc1nnc(CNc2ccc(F)cc2)n1CC1CCCO1 (stereo not drawn) | i | >57
COc1ccc(NC(=O)Cc2nn(C)c(=O)c3ccccc23)c2ncccc12 | i | >57
CCCc1nc2ccccc2c(=O)n1/N=C/c1ccc(O)cc1O | i | >57
COc1ccc(C(=O)OCCN=C2NS(=O)(=O)c3ccccc32)cc1OC | i | >57
CCCCNC(=O)CCn1c(=O)c2ccccc2n(CC(=O)Nc2ccccc2OCC)c1=O | i | >57
Cc1ccccc1N1CCN(S(=O)(=O)c2ccc3oc(=O)ccc3c2)CC1 | i | >57
COc1ccc(Nc2nc(N)nc(C(F)(F)F)n2)c(OC)c1 | i | nt
CCOC(=O)c1ccc(S(=O)(=O)N2CCN(S(=O)(=O)CC)CC2)cc1 | i | >57
O=C(O)c1ccccc1/C=N\N=C1c2ccccc2-c2ccccc21 | i | nt
CCc1ccc2[nH]c(=O)c(CN(Cc3ccc4c(c3)OCO4)C(=O)c3ccco3)cc2c1 | i | >57
O=C(c1ccccc1F)N1CCN(c2cccc(C(F)(F)F)c2)CC1 | i | >57
C#CCN1C(=O)C(O)(CC(=O)c2cccc(OC)c2)c2ccccc21 (stereo not drawn) | i | >57
COCCCNC(=O)CCS(=O)(=O)Cc1ccc(C)cc1 | i | >57
CCOC(=O)C1=C(CSc2nccn2C)NC(=O)NC1c1ccc2c(c1)OCO2 (stereo not drawn) | i | >57
CCC1Oc2ccc(C)cc2N(CC(=O)NCc2cc(OC)ccc2OC)C1=O (stereo not drawn) | i | >57
CCOC(=O)C1CCN(C(C)=C2C(=O)c3ccccc3C2=O)CC1 | nt | >26
CCC(C)N(C(=O)COC(=O)Cc1n[nH]c(=O)c2ccccc12)C1CCS(=O)(=O)C1 (stereo not drawn) | i | >57
Cc1ccc(N(CC(=O)O)S(=O)(=O)c2cccc3nonc23)cc1 | i | >57
Cc1cc2c(c(=O)o1)C1(C(=O)N(CC(=O)O)c3ccccc31)C(C#N)=C(N)O2 (stereo not drawn) | i | >57
CCn1c(C(C)NC(=O)c2cccs2)nc2ccccc21 (stereo not drawn) | i | nt
O=C(Nc1cccc(F)c1)c1cccc(S(=O)(=O)N2CCOCC2)c1 | i | >57
CCOC(=O)c1sc(=S)n(-c2ccc(F)c(F)c2)c1N | i | >57
Cc1nn(-c2ccc(C(=O)Nc3nnc(C4CC4)s3)cc2)c(C)c1Cl | i | >57
COc1ccc(-n2c(Cc3cccn3C)nnc2SCC(=O)N2CCCC2)cc1 | i | nt

Continued:
SMILES | TsaE inh | PK Bst
Cc1nc2ccc(NC(=O)Cc3cccs3)cc2s1 | i | nt
CCOCCn1c(=O)c2c(nc3n2CCN3c2ccccc2)n(C)c1=O | i | >57
COc1ccc(C2c3c(oc4ccccc4c3=O)C(=O)N2CC2CCCO2)cc1 (stereo not drawn) | i | >57
CCc1cccc(C)c1NC(=O)C1CCCO1 (stereo not drawn) | i | nt
O=C(NCc1ccccc1)N[C@@H](Cc1ccccc1)C(=O)O | i | >57
Cc1ccc(S(=O)(=O)N2C(=S)SCC2(C)C)cc1 | i | nt
OCCN(CCO)CC(O)Cn1c2ccccc2c2ccccc21 (stereo not drawn) | i | >57
CCC(=O)n1nc(NCc2ccc(OC)c(OC)c2)nc1NCc1ccc(OC)c(OC)c1 | i | >57
Nc1n[nH]c(S(=O)(=O)CCCc2ccccc2)n1 | i | >57
Cc1noc(NS(=O)(=O)c2ccc(NC(=O)CSc3n[nH]c(-c4ccccc4)n3)cc2)c1C | i | >57
O=C(CSCCNS(=O)(=O)c1ccccc1)Nc1ccccc1 | i | nt
CC(C)c1nnc(NC(=O)c2c(O)c3cccc4c3n(c2=O)CCC4)s1 | i | >57
O=C(Nc1ccc(Oc2ccccc2)cc1)C1CCCO1 (stereo not drawn) | i | nt
CCOc1cc(C(=O)NCCN2CCOCC2)cc(OCC)c1OCC | i | nt
c1coc(CNc2nc3ccccc3n2CCN2CCOCC2)c1 | i | >57
CCSc1nnc2c(n1)OC(c1ccc(C(=O)O)cc1)N(C(C)=O)c1ccccc1-2 (stereo not drawn) | i | nt
CCOC(=O)C1CCCN(CC(=O)Nc2c(C(=O)OC)[nH]c3ccccc23)C1 (stereo not drawn) | i | >57
C=CCn1c(SCC(O)Cn2c3ccccc3c3ccccc32)nnc1-c1ccco1 (stereo not drawn) | i | >57
N#Cc1cc2ccccc2nc1SCC(=O)Nc1ccccc1N1CCOCC1 | i | >57
CCCCNC(=O)c1nnn(-c2ccccc2)c1N | i | >57
COc1cc(C(=O)NCC(c2cccnc2)N2CCN(C)CC2)cc(OC)c1OC (stereo not drawn) | i | >57
O=S1(=O)CC(N2CCOCC2)c2ccccc21 (stereo not drawn) | i | >57
C=CCNC(=O)CN1C2CCCC1CC(NC(=O)c1ccccc1C)C2 (stereo not drawn) | i | >57
CC(=O)c1ccc(NC(=O)c2cc(CC(C)C)on2)cc1 | i | nt
COc1ccc(S(=O)(=O)N2CCOCC2)cc1C(C)C | i | >57

(cont.)
SMILES | TsaE inh | PK Bst
CC(=O)c1cccc(NS(=O)(=O)c2c(C)noc2C)c1 | i | >57
Cc1cccc(-n2ncc3c(NCc4ccccc4)ncnc32)c1 | i | nt
CCn1cnc2sc(C(=O)Nc3ccc4c(c3)OCO4)c(C)c2c1=O | i | nt
Cn1c(SCC(=O)N2CCN(Cc3ccccc3)CC2)nnc1-c1ccncc1 | i | nt
CC12CC(NC(=O)N1c1cccc(C(=O)NCc3ccc4c(c3)OCO4)c1)c1cc(Cl)ccc1O2 (stereo not drawn) | i | ?
O=C(O)c1ccc([N+](=O)[O-])c(P(=O)(O)O)c1 | i | nt
CCCCn1c(SCC(=O)Nc2cc(C)on2)nc2ccsc2c1=O | i | >57
COc1ccc(OC)c(C(=O)CSc2nnnn2C)c1 | i | >57
CCCSc1nc(N)c(C#N)c(-c2ccc(C)cc2)c1C#N | i | >57
CCS(=O)(=O)NCCc1cc2ccc(C)cc2[nH]c1=O | i | >57
O=C(c1csnn1)N1CCC2(CCCN(c3cccc(-c4ccccc4)c3)C2)CC1 | i | nt
CCc1ccc2oc(=O)cc(CN3CCCCC3C)c2c1 (stereo not drawn) | i | >57
O=C(CCC(=O)CCN1CCCCC1)CCN1CCCCC1 | nt | >26
N#CCSc1nnc(C2CCCCC2)n1Cc1ccccc1 | i | >57
CCOC(=O)C1=C(C)N(C)C(C)=C(C(=O)OCC)C1c1ccncc1 | i | >57
COc1ccc(C2CC(C(F)(F)F)n3ncc(C(=O)NCc4cccnc4)c3N2)cc1OC (stereo not drawn) | i | >57
CS(=O)(=O)N1CCc2cc(-c3csc(NC(=O)Cc4cccs4)n3)ccc21 | i | nt
COc1ccc(CCNC(=O)CC2Nc3cc(C)c(C)cc3NC2=O)cc1OC (stereo not drawn) | i | >57
CC(=O)C1=C(C)Nc2ncnn2C1c1cccc(OCc2ccccc2)c1 (stereo not drawn) | i | nt
Cn1c(COc2ccccc2)nnc1SCc1nc2ccccc2[nH]1 | i | >57
CCc1cc(=O)oc2cc(OCC(=O)OC)c(Cl)cc12 | i | nt

In a second layout: results already given
| SMILES | TsaE inh | PK Bst |
| --- | --- | --- |
| Cn1c(SCC(=O)N2CCN(Cc3ccccc3)CC2)nnc1-c1ccncc1 | i | nt |
| CC12CC(NC(=O)N1c1cccc(C(=O)NCc3ccc4c(c3)OCO4)c1)c1cc(Cl)ccc1O2 (stereo not drawn) | i | ? |

Only part of the results is shown; the hit share may differ from the screen's.
